Measles inh – inhibitors of measles virus growth in infected cells | infected Vero cells, GFP fluorescence, 64 h; stronger effect = lower value | 33,000 compounds, 0.1% hits | z-score (no concentration beside the values);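 active = z-score under -3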;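 note: score is relative to mean and SD of the compound wells of a plate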
* = called active by the depositor. A portion of the library, so the mix of outcomes need not match the whole.

Measles inh,structure
0.68,O=C(CSC1=NCCS1)n1c2c(c3ccccc31)CCCC2
-0.32,O=C(NC1CCCC1)C1CCC(CNS(=O)(=O)c2ccc(F)cc2)CC1 (stereo not drawn)
-0.03,COc1ccc(S(=O)(=O)N=C2C=C(Nc3ccc(C)cc3C)C(=O)c3ccccc32)cc1
-0.43,CC1=C(C(=O)OC(C)C)C(c2ccc(Br)cc2)C2=C(CC(c3ccc(Cl)cc3)CC2=O)N1 (stereo not drawn)
1.32,COc1cc(SC)ccc1C(=O)N1CCc2ccccc21
0.04,COc1ccc(OC)c(N(CC(=O)N2CCCCCC2)S(C)(=O)=O)c1
-0.19,Cc1cc(C)n(S(=O)(=O)c2ccc(F)cc2)n1
-0.86,CCC(=O)N1c2ccc(S(=O)(=O)NCCCN3CC(C)CC(C)C3)cc2CC1C (stereo not drawn)
0.76,Cc1nc2oc3c(-c4ccc(Br)cc4)ncnc3c2c2c1COC(C)(C)C2
-0.33,CCOc1ccc(-n2c(=O)c3sccc3n(CC(=O)NCc3ccccc3)c2=O)cc1
-0.19,CC(=O)c1c(C)oc2ccc(N(C(=O)c3ccccc3)S(=O)(=O)c3ccc(C)cc3C)cc12
0.98,COc1ccc(S(=O)(=O)N2CCN(CC(=O)Nc3ccccc3OC)CC2)cc1
0.06,O=C(O)c1cccc([N+](=O)[O-])c1C(=O)Nc1ccc2ccccc2c1
-0.38,COc1ccc(C#N)c(SCc2ccccc2)c1
1.2,CC(C)CC(=O)N1CCN(Cc2cccnc2)CC1
1.17,CCOC(=O)Oc1ccc2c(=O)c(Oc3ccccc3Cl)coc2c1
-0.63,CC1CCc2sc(NC(=O)c3cc(Cl)ccc3[N+](=O)[O-])c(C(N)=O)c2C1 (stereo not drawn)
-0.45,CCCOC(=O)C1=C(C)NC(=O)NC1c1ccc(OCCC)c(OC)c1 (stereo not drawn)
-0.33,CC1=C(C(=O)OCC(C)C)C(c2cc3c(cc2Cl)OCO3)C2=C(CC(c3ccccc3)CC2=O)N1 (stereo not drawn)
-0.56,Cc1ccc(S(=O)(=O)NCCN=Cc2ccc3c(c2)OCO3)cc1
1.57,CC(C)C(=O)NCCSc1c[nH]c2ccccc12
-1.34,CCOC(=O)c1c(NC(=O)c2cccc(N3C(=O)CCC3=O)c2)sc2c1CCC2
-0.64,Cn1c(SCC(=O)N2CCCc3ccccc32)nnc1-c1c[nH]c2ccccc12
-0.77,CCOC(=O)Cc1csc(NC(=O)c2ccc(F)cc2)n1
-0.82,c1nc2ncn3c(c-2n1)SCCC3
-0.89,COCCNC(=O)c1cc2c(=O)n3ccccc3nc2s1
-0.57,COc1cc(NC(=O)c2ccc(CSC3CCCCC3)cc2)cc(OC)c1OC
-0.7,CC(C)(C)c1ccc(C(=O)Nc2nccs2)cc1
-0.69,CCCCCCOC(=O)C1=C(C)NC(=O)NC1c1ccc(O)cc1 (stereo not drawn)
-1.21,O=C(Nc1nc(-c2ccccn2)cs1)c1ccc(Oc2ccccc2)cc1
-1.52,CC(=O)Nc1cccc(Nc2nc(-c3ccccc3F)nc3ccccc23)c1
-0.21,O=C(NCC1CCCO1)c1cccc(N2C(=O)C3CC=CCC3C2=O)c1 (stereo not drawn)
-0.19,C=CCNC(=O)c1sc(=S)n2c1[nH]c(=O)c1sccc12
-1.44,COc1ccc(-c2nn(C)c3sc(C(=O)O)cc23)cc1OC
0.02,O=C(CN1C(=O)CSc2ccc(S(=O)(=O)N3CCCC3)cc21)NCCCN1CCCCC1
0.62,O=C(C1CCC(CNS(=O)(=O)c2ccccc2)CC1)N1CCN(c2cccc(Cl)c2)CC1 (stereo not drawn)
0.12,COc1cc2ccccc2cc1C(=O)Nc1ccc(F)cc1
1,O=C(c1cccs1)N1CCN(c2ccc([N+](=O)[O-])cc2F)CC1
0.73,O=C(CSc1nc2ccccc2s1)Nc1nc2c(ccc3ccccc32)s1
0.71,COc1ccc(-n2nc([N+](=O)[O-])c(=NCCc3ccc(OC)c(OC)c3)n2O)cc1
0.68,CCOc1cc(C2C(C(=O)OC3CCCCC3)=C(C)NC3=C2C(=O)C(C(=O)OC)C(C)C3)ccc1O (stereo not drawn)
-0.28,CCOc1nc(NCCO)nc(Nc2ccc(I)cc2C)n1
-0.2,CC1CCc2c(sc(NC(=O)c3cc4nc(-c5ccco5)cc(C(F)(F)F)n4n3)c2C#N)C1 (stereo not drawn)
0.29,COC(=O)c1sc(N2C(=O)C(=O)/C(=C(/O)c3ccc(Cl)cc3)C2c2ccc(C)cc2)nc1C (stereo not drawn)
0.17,O=c1c(F)cn(Cc2ccccc2)c(=O)n1Cc1ccccc1
-0.78,Cc1ccc(-n2c(=O)[nH]c3cc(C(=O)NCc4ccc(Cl)cc4)ccc3c2=O)cc1
-0.44,CCCCn1c(=O)c2ccccc2n2c(=S)sc(C(=O)OCC)c12
-0.94,CC1(C)CC(=O)N(CC(=O)NCc2ccc(F)cc2)c2ccccc2S1
-0.19,CCOc1ccc2nc(NC(=O)C3Cc4ccccc4O3)sc2c1 (stereo not drawn)
0.65,COc1ccc(-c2n[nH]c(=S)o2)cc1

(list continues)
Measles inh,structure
-0.97,COc1ccc(NC(=O)CN2CCN(c3ccccc3F)CC2)c(OC)c1
-0.37,OC1(c2ccc(Cl)cc2)CSC(=S)N1Cc1ccco1 (stereo not drawn)
-0.51,O=c1oc2ccccc2c(N2CCN(c3ccccc3)CC2)c1[N+](=O)[O-]
-0.64,CCOc1ccc(NC(=NS(=O)(=O)c2ccc(C)cc2)c2ccccc2)cc1
0.31,COc1ccccc1CNC(=O)c1ccc(N2CCCCC2)c(NS(=O)(=O)c2ccc(C)cc2)c1
-2.94,O=C(Nc1cccc(-c2nc3ccccc3[nH]2)c1)c1cc([N+](=O)[O-])ccc1Cl
-0.26,CC(C)c1ccc(N(C)C(=O)CNC(=O)Cn2cnc3ccccc3c2=O)cc1
-0.1,CCc1ccccc1Nc1nc(-c2ccc(OC)c(OC)c2)cs1
-1.5,O=C1NC(c2ccc(-c3cccc(Cl)c3)o2)C(C(=O)c2ccc(F)cc2)C(O)(C(F)(F)F)N1 (stereo not drawn)
-0.12,O=S(=O)(c1ccccc1)C1c2ccccc2Oc2ccc(Cl)cc21 (stereo not drawn)
-0.85,O=C1c2cccnc2C(=O)N1c1ccc(-c2nc3cc(Cl)ccc3o2)cc1
0.43,CCOC(=O)c1sc(NC(=O)c2sc3ccccc3c2Cl)nc1C
-0.03,Cc1ccccc1-n1cc(C(=O)O)c2ccccc2c1=O
-0.05,COC(=O)c1ccccc1NC(=O)Cn1cnc([N+](=O)[O-])n1
-0.42,CCCCc1ccc(C(=O)Nc2cc3ccccc3oc2=O)cc1
-0.27,COc1ccc(C2CC(=O)c3c([nH]c(C(=O)OCC(C)C)c3C)C2)cc1 (stereo not drawn)
-0.69,CSc1cc(-c2ccccc2)[o+]c(-c2ccccc2)c1
0.62,O=c1nc2n3ccccc3ncc-2s1
-0.06,CCOC(=O)C1CCN(c2ccc([N+](=O)[O-])cc2S(=O)(=O)N2CCOCC2)CC1
-1.23,COc1ccc(N2CC(C(=O)Nc3ccc(C(C)C)cc3)CC2=O)cc1 (stereo not drawn)
-0.38,Cc1nn(-c2ccccc2)c(OC(=O)c2ccc([N+](=O)[O-])cc2)c1Sc1ccccc1[N+](=O)[O-]
-0.76,CCCC12CN3CC(CCC)(CN(C1)C3c1c[nH]c3ccccc13)C2=O (stereo not drawn)
-0.81,CN(C)C(=S)Oc1ccc(C(=O)Nc2ccc3ccccc3c2)cc1
-2.84,CCCOC(=O)C1=C(C)NC2=C(C(=O)CC(C)(C)C2)C1c1ccc(C)o1 (stereo not drawn)
-0.47,COc1ccc(C2C(C(=O)NC3CCCCC3)c3ccccc3C(=O)N2C2CCCCC2)cc1 (stereo not drawn)
-0.67,COc1ccc(NC(=O)c2ccc(NS(=O)(=O)c3cccs3)cc2)c(OC)c1
-1.15,Cc1cccc(CN2CCN(CC(=O)NCc3cccnc3)C2=O)c1
0.28,O=C(NC1CCCCC1)c1cnn2c1NC(c1ccc(Br)cc1)CC2C(F)(F)F (stereo not drawn)
0.35,Cc1c(Cl)cccc1NC(=O)c1noc2c1CCC2
1.82,FC(F)(F)c1cc(-c2cccs2)nc(N2CCOCC2)n1
0.15,O=C(O)CCC(=O)Nc1ccc(Br)c2cccnc12
-0.14,Cc1cccc(NC(=O)c2cc3c(CO)cnc(C)c3oc2=Nc2ccc3c(c2)OCO3)c1
0.6,CCOC(=O)C1=C(C)NC(=S)NC1c1ccsc1 (stereo not drawn)
0.5,c1cn2c3c(n1)CCCc3c1cc(C3CCCCC3)ccc12
0.12,O=C(CCS(=O)(=O)c1ccc(Br)cc1)NC1CCCCC1
-0.31,CCOc1ccc(NC(=O)CSc2cc(C)c3ccccc3n2)cc1
-0.39,COc1ccc([N+](=O)[O-])cc1NC(=O)c1sc2ncn(CC(=O)N3CCCCC3)c(=O)c2c1C
-1.38,CCC1Oc2ccc(C)cc2N(CC(=O)NC2CCCC(C)C2C)C1=O (stereo not drawn)
0.01,Cc1ccc(-c2nc3ccccc3o2)cc1NC(=O)c1cccnc1
0.33,CC1CCN(C(=O)CSc2nc3ccsc3c(=O)n2Cc2ccc3c(c2)OCO3)CC1
-0.46,Cc1cc(NC(=O)CCCC(=O)O)no1
0.41,Cc1cc2nc(-c3ccc(NC(=O)c4ccc([N+](=O)[O-])o4)cc3)oc2cc1C
-1.59,Cc1ccc(-c2nc3ccccc3[nH]2)cc1NC(=O)c1ccccc1[N+](=O)[O-]
-0.26,COc1ccc(OC)c(NC(=O)c2sc3nc(-c4ccccc4)cn3c2C)c1
-0.62,Cc1ccccc1Oc1cc(NC(=O)c2ccncc2)cc(Oc2ccccc2C)c1
0.38,COc1ccccc1N1CCN(C(=O)CCS(=O)(=O)c2cc(Br)cc3c2N(C(C)=O)CC3)CC1
-0.34,CCc1ccc(Sc2cc(C(=O)NC3CC3)c3ccccc3n2)cc1
1.67,CCOc1ccc(Cl)cc1S(=O)(=O)N1CCCCC1
0.03,O=C(O)C1C2C=CC(C2=C(c2ccccc2)c2ccccc2)C1C(=O)Nc1ccccn1 (stereo not drawn)
-1.08,COc1ccc(NC(=O)c2cccc([N+](=O)[O-])c2)c([N+](=O)[O-])c1

Next entries.
Measles inh,structure
1.53,COc1ccc(NC(=O)C2=C(C)NC(=O)NC2c2ccc(C)cc2)cc1 (stereo not drawn)
-2.4,COC(=O)c1ccc(C(=O)Nc2cccc3c2C(=O)c2ccccc2C3=O)cc1
0.24,Nc1nc(-c2cccc(C(F)(F)F)c2)cs1
-0.98,COc1ccc(C2C(C(=O)N(C)C3CCCCC3)c3ccccc3C(=O)N2c2ccc(OC)cc2)cc1 (stereo not drawn)
-0.08,O=C(c1cc(-c2cccc(Cl)c2)on1)N1CCN(c2ccc(F)cc2)CC1
-0.23,O=C(NCCc1c[nH]c2ccccc12)c1ccc2nc3ccc(Cl)cc3c(=O)n2c1
-0.94,COc1ccc(C2CC(=O)C3=C(C2)Nc2ccccc2NC3c2ccccc2OC(C)C)cc1 (stereo not drawn)
-1.22,COc1ccc(NC2=CC(=O)CC(C)(C)C2)c(OC)c1
2.24,CCOC(=O)CC(=O)Nc1scc(-c2ccccc2)c1C(=O)OC
-0.44,Cc1ccc(NS(=O)(=O)c2cccc3cccnc23)c(Cl)c1

17 of the compounds above, in CSV form.
molecule,Measles inh
Cc1cc(NC(=O)CCCC(=O)O)no1,-0.46
Cc1cc2nc(-c3ccc(NC(=O)c4ccc([N+](=O)[O-])o4)cc3)oc2cc1C,0.41
Cc1ccc(-c2nc3ccccc3[nH]2)cc1NC(=O)c1ccccc1[N+](=O)[O-],-1.59
COc1ccc(OC)c(NC(=O)c2sc3nc(-c4ccccc4)cn3c2C)c1,-0.26
Cc1ccccc1Oc1cc(NC(=O)c2ccncc2)cc(Oc2ccccc2C)c1,-0.62
COc1ccccc1N1CCN(C(=O)CCS(=O)(=O)c2cc(Br)cc3c2N(C(C)=O)CC3)CC1,0.38
CCc1ccc(Sc2cc(C(=O)NC3CC3)c3ccccc3n2)cc1,-0.34
CCOc1ccc(Cl)cc1S(=O)(=O)N1CCCCC1,1.67
O=C(O)C1C2C=CC(C2=C(c2ccccc2)c2ccccc2)C1C(=O)Nc1ccccn1 (stereo not drawn),0.03
COc1ccc(NC(=O)c2cccc([N+](=O)[O-])c2)c([N+](=O)[O-])c1,-1.08
COc1ccc(NC(=O)C2=C(C)NC(=O)NC2c2ccc(C)cc2)cc1 (stereo not drawn),1.53
COC(=O)c1ccc(C(=O)Nc2cccc3c2C(=O)c2ccccc2C3=O)cc1,-2.4
Nc1nc(-c2cccc(C(F)(F)F)c2)cs1,0.24
COc1ccc(C2C(C(=O)N(C)C3CCCCC3)c3ccccc3C(=O)N2c2ccc(OC)cc2)cc1 (stereo not drawn),-0.98
O=C(c1cc(-c2cccc(Cl)c2)on1)N1CCN(c2ccc(F)cc2)CC1,-0.08
O=C(NCCc1c[nH]c2ccccc12)c1ccc2nc3ccc(Cl)cc3c(=O)n2c1,-0.23
COc1ccc(C2CC(=O)C3=C(C2)Nc2ccccc2NC3c2ccccc2OC(C)C)cc1 (stereo not drawn),-0.94

(more compounds)
Measles inh,structure
0.22,COc1cccc(N2CCN(C(=O)c3ccc4c(=O)n(-c5ccccc5)c(=O)[nH]c4c3)CC2)c1
1.55,O=C(C1CC1)N1CCc2cc(Br)cc(S(=O)(=O)Nc3ccc(Cl)c(C(F)(F)F)c3)c21
0.07,O=C(CSc1nc2ccsc2c(=O)n1Cc1ccccc1)NCC1CCCO1 (stereo not drawn)
0.14,CS(=O)(=O)N1CCCC(C(=O)NCCN2CCC(Cc3ccccc3)CC2)C1 (stereo not drawn)
-1.35,CCOC(=O)C1=C(C)NC(C)=C(C(=O)OC)C1c1ccc([N+](=O)[O-])cc1 (stereo not drawn)
-0.75,COc1ccc(-c2cc3ccccc3n2CC(O)CN2CCCCC2)cc1 (stereo not drawn)
-0.83,CN(C)c1ccc(P(=O)(c2ccc(N(C)C)cc2)c2ccc(N(C)C)cc2)cc1
-2.18,COc1cccc(CNS(=O)(=O)c2ccc3[nH]c(=O)sc3c2)c1
-0.12,CCN(CC)c1cc(C)c2cc(NC(=O)c3ccc([N+](=O)[O-])c(C)c3)ccc2n1
-0.84,Oc1ccccc1C1CC(c2cccs2)=NC(c2ccc(F)cc2)N1 (stereo not drawn)

Screening data (PubChem BioAssay)
